# FGF22 binding: binders of human FGF22 protein, primary screen, FGF22 synaptogenesis inhibitor project, biophysical, thermal shift, single point. actives 1.5% (n = 340,000). Fibroblast growth factor 22 (Homo sapiens), Q9HCT0. recombinant FGF22 thermal shift, SYPRO orange fluorescence; percent of sucrose octasulfate shift, DMSO zero. calls only at 9.99 µM;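 active = melting point raised past a set limit in the mean and every replicate; three in four hits are not shown here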
# Target sequence (Q9HCT0 whole entry, looked up): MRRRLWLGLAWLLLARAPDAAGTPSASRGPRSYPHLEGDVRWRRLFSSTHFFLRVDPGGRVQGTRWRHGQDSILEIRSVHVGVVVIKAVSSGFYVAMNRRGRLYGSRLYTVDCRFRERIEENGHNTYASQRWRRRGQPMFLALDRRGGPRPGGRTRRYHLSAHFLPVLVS
# Calls only; i = inactive. Some of the compounds tested, so the mix of outcomes need not match the whole.
SMILES,FGF22 binding
COC(=O)C[C@H]1CC[C@@H]2[C@@H](COc3ccc(NC(=O)Nc4ccc(Cl)cc4)cc3C(=O)N2C)O1,i
C[C@@H]1CN([C@H](C)CO)C(=O)c2cccc(NC(=O)NC3CCCCC3)c2O[C@@H]1CN(C)Cc1ccc(-c2ccccc2)cc1,i
C[C@H](CO)N1C[C@H](C)[C@H](CN(C)C)Oc2cc(-c3ccccc3F)ccc2S1(=O)=O,i
C[C@@H]1CN([C@@H](C)CO)C(=O)c2cc(NS(=O)(=O)c3cccs3)ccc2O[C@@H]1CN(C)C,i
COc1ccc(NC(=O)N(C)C[C@H]2Oc3ccc(NS(=O)(=O)c4ccc(OC)cc4)cc3CC(=O)N([C@@H](C)CO)C[C@H]2C)cc1,i
Cc1noc(C)c1NC(=O)Nc1ccc2c(c1)CC(=O)N([C@H](C)CO)C[C@H](C)[C@H](CN(C)C(=O)Nc1cccc3ccccc13)O2,i
C[C@@H]1CCCCO[C@@H](CN(C)S(=O)(=O)c2cccs2)[C@H](C)CN([C@H](C)CO)C(=O)c2cc(NC(=O)c3ccccc3)ccc2O1,i
C[C@@H]1CCCCO[C@@H](CN(C)C(=O)Nc2ccc(C(F)(F)F)cc2)[C@H](C)CN([C@@H](C)CO)C(=O)c2cc(NS(C)(=O)=O)ccc2O1,i
C[C@H]1CCCCO[C@@H](CN(C)C(=O)C2CCCCC2)[C@@H](C)CN([C@@H](C)CO)C(=O)c2cc(NC(=O)Nc3ccc(C(F)(F)F)cc3)ccc2O1,i
C[C@@H]1CN([C@@H](C)CO)C(=O)Cc2cc(NC(=O)NC3CCCCC3)ccc2O[C@@H]1CN(C)Cc1ccccc1,i
CC(C)(C)OC(=O)N1CCC[C@@H]1C(=O)NCc1ccccc1,i
CN(C)C(=O)C[C@@H]1C=C[C@@H](NC(=O)NC2CCCC2)[C@@H](CO)O1,i
C[C@@H]1CN([C@H](C)CO)S(=O)(=O)c2ccc(C#C[C@@H](C)O)cc2O[C@@H]1CN(C)C(=O)c1ccccc1,i
CC(C)NC(=O)N1[C@H](CO)[C@H]2c3ccccc3NC[C@H]21,i
CCCNC(=O)N(C)C[C@@H]1Oc2cc(C#CCC(C)C)ccc2S(=O)(=O)N([C@H](C)CO)C[C@@H]1C,i
O=C(C[C@H]1C=C[C@@H](NC(=O)Nc2ccc(C(F)(F)F)cc2)[C@H](CO)O1)NCc1cccc(F)c1,i
Cc1ccccc1-c1ccc2c(c1)O[C@H](CN(C)C(=O)Nc1ccccc1)[C@H](C)CN([C@H](C)CO)S2(=O)=O,i
C[C@@H]1CCCCO[C@@H](CN(C)Cc2ccc(C(=O)O)cc2)[C@@H](C)CN([C@H](C)CO)C(=O)c2cc(NC(=O)C3CCCCC3)ccc2O1,i
C/C=C/c1ccc([C@@H]2[C@@H](CN(C)C(=O)C3CC3)N(C(=O)C3CC3)[C@H]2CO)cc1,i
Cc1cccc(-c2ccc([C@H]3[C@H]4CN(C(=O)c5cccnc5)CCCCN4[C@H]3CO)cc2)c1,i
COc1ccc2c3c([nH]c2c1)[C@H](CO)N(C(=O)Cc1ccccc1)CC31CN(C(=O)Cc2ccccc2)C1,i
CNC[C@@H]1Oc2ccc(NC(=O)Nc3ccc4c(c3)OCO4)cc2C(=O)N([C@@H](C)CO)C[C@@H]1C,i
CC(=O)N(C)C[C@H]1Oc2ncc(/C=C/c3ccccc3)cc2C(=O)N([C@@H](C)CO)C[C@H]1C,i
O=C(C(=O)N1CCN(S(=O)(=O)c2cccc(C(F)(F)F)c2)CC1)c1cccc(C(F)(F)F)c1,i
CN(C)C(=O)C[C@H]1CC[C@@H](NC(=O)NC2CCCCC2)[C@H](CO)O1,i
C[C@@H]1CCCCO[C@@H](CN(C)Cc2ccncc2)[C@H](C)CN([C@@H](C)CO)C(=O)c2cc(NC(=O)Nc3ccc4c(c3)OCO4)ccc2O1,i
COCC(=O)N[C@H]1C=C[C@H](CC(=O)NCc2ccccc2OC)O[C@@H]1CO,i
O=S(=O)(c1ccc(F)cc1)N1CCCCN2[C@@H](CO)[C@@H](c3ccc(-c4cncnc4)cc3)[C@@H]2C1,i
Cc1noc(C)c1NC(=O)Nc1ccc2c(c1)C(=O)N([C@@H](C)CO)C[C@@H](C)[C@@H](CN(C)C(=O)NC1CCCCC1)OCCCC[C@H](C)O2,i
CCCNC(=O)C[C@H]1C[C@H]2c3cc(NS(C)(=O)=O)ccc3O[C@H]2[C@H](CO)O1,i

# The final 7 entries of the section before lead into the next.
SMILES,FGF22 binding
O=C(C(=O)N1CCN(S(=O)(=O)c2cccc(C(F)(F)F)c2)CC1)c1cccc(C(F)(F)F)c1,i
CN(C)C(=O)C[C@H]1CC[C@@H](NC(=O)NC2CCCCC2)[C@H](CO)O1,i
C[C@@H]1CCCCO[C@@H](CN(C)Cc2ccncc2)[C@H](C)CN([C@@H](C)CO)C(=O)c2cc(NC(=O)Nc3ccc4c(c3)OCO4)ccc2O1,i
COCC(=O)N[C@H]1C=C[C@H](CC(=O)NCc2ccccc2OC)O[C@@H]1CO,i
O=S(=O)(c1ccc(F)cc1)N1CCCCN2[C@@H](CO)[C@@H](c3ccc(-c4cncnc4)cc3)[C@@H]2C1,i
Cc1noc(C)c1NC(=O)Nc1ccc2c(c1)C(=O)N([C@@H](C)CO)C[C@@H](C)[C@@H](CN(C)C(=O)NC1CCCCC1)OCCCC[C@H](C)O2,i
CCCNC(=O)C[C@H]1C[C@H]2c3cc(NS(C)(=O)=O)ccc3O[C@H]2[C@H](CO)O1,i
CC(=O)N(C)C[C@@H]1Oc2ncc(-c3ccc(C(=O)N(C)C)cc3)cc2C(=O)N([C@H](C)CO)C[C@@H]1C,i
CC(=O)N(C)C[C@@H]1Oc2cc(-c3ccc(C#N)cc3)ccc2S(=O)(=O)N([C@H](C)CO)C[C@@H]1C,i
C/C=C/c1ccc([C@@H]2[C@@H](CN(CC)C(=O)CN(C)C)N(C(C)=O)[C@H]2CO)cc1,i
Cc1ccc(Cc2c(-c3cccc(Br)c3)nc3ccc(C)cn23)cc1,i
CCC(=O)Nc1ccc2c(c1)OC[C@@H](C)N(CCC(F)(F)F)C[C@H](C)[C@H](OC)CN(C)C2=O,i
C[C@@H]1CCCCO[C@@H](CN(C)C(=O)CCC(F)(F)F)[C@H](C)CN([C@@H](C)CO)C(=O)c2cc(NC(=O)Cc3ccccc3)ccc2O1,i
CO[C@H]1CN(C)C(=O)c2ccc(NC(C)=O)cc2OC[C@H](C)N(CC2CCCCC2)C[C@H]1C,i
CC(=O)N(C)C[C@H]1Oc2cc(C#Cc3ccccc3F)ccc2S(=O)(=O)N([C@@H](C)CO)C[C@@H]1C,i
CCCNC(=O)N1[C@H](C#N)[C@H](c2ccc(-c3ccccc3F)cc2)[C@H]1CO,i
Cc1ccc(S(=O)(=O)N2CC[C@@H]3[C@H]2c2cc(Br)ccc2N[C@@H]3CO)cc1,i

# Some of the entries so far, field by field:
C/C=C/c1ccc([C@@H]2[C@@H](CN(CC)C(=O)CN(C)C)N(C(C)=O)[C@H]2CO)cc1
  FGF22 binding: i
CC(=O)N(C)C[C@@H]1Oc2ncc(-c3ccc(C(=O)N(C)C)cc3)cc2C(=O)N([C@H](C)CO)C[C@@H]1C
  FGF22 binding: i
CO[C@H]1CN(C)C(=O)c2ccc(NC(C)=O)cc2OC[C@H](C)N(CC2CCCCC2)C[C@H]1C
  FGF22 binding: i
Cc1ccc(Cc2c(-c3cccc(Br)c3)nc3ccc(C)cn23)cc1
  FGF22 binding: i

# (listing goes on)
SMILES,FGF22 binding
C[C@@H]1CCCCO[C@@H](CN(C)Cc2ccc(C(=O)O)cc2)[C@H](C)CN([C@H](C)CO)C(=O)c2cc(NC(=O)C3CCCCC3)ccc2O1,i
C[C@@H]1CCCCO[C@@H](CN(C)CC2CCCCC2)[C@@H](C)CN([C@H](C)CO)C(=O)c2cc(N(C)C)ccc2O1,i
Cc1ccc(S(=O)(=O)N(C)C[C@H]2OCCCC[C@H](C)Oc3ccc(NC(=O)Nc4c(C)noc4C)cc3C(=O)N([C@@H](C)CO)C[C@H]2C)cc1,i
C[C@@H]1CN([C@H](C)CO)C(=O)c2cc(NC(=O)Nc3ccc(C(F)(F)F)cc3)ccc2O[C@@H](C)CCCCO[C@@H]1CN(C)S(=O)(=O)c1ccc(Cl)cc1,i
CC(C)NC(=O)N1[C@@H]2CN(C(=O)Nc3ccccc3)c3ccccc3[C@@H]2[C@@H]1CO,i
C[C@@H]1CN([C@H](C)CO)C(=O)c2cc(NS(=O)(=O)c3ccc(Cl)cc3)ccc2O[C@H]1CN(C)Cc1ccc(-c2ccccc2)cc1,i
CC(=O)N1CC[C@H]2[C@@H]1c1cc(-c3ccc(C#N)cc3)ccc1N(C)[C@H]2CO,i
CC(C)NC(=O)N(C)C[C@H]1Oc2ccc(NC(=O)c3ccncc3)cc2C(=O)N([C@H](C)CO)C[C@H]1C,i
C[C@@H]1CN([C@H](C)CO)C(=O)Cc2cc(NC(=O)C3CCCCC3)ccc2O[C@@H]1CN(C)Cc1ccc(C(F)(F)F)cc1,i
C[C@@H]1CN([C@H](C)CO)S(=O)(=O)c2ccc(-c3ccc(F)cc3)cc2O[C@H]1CN(C)C(=O)Nc1ccccc1F,i
CCNC(=O)[C@H]1[C@H](CO)[C@H]2Cn3c(ccc(-c4ccc(OC)cc4)c3=O)[C@H]2N1Cc1nccs1,i
C[C@H](CO)N1C[C@H](C)[C@@H](CN(C)C(=O)c2ccccn2)Oc2ncc(C3=CCCC3)cc2C1=O,i
Cc1noc(C)c1S(=O)(=O)Nc1ccc2c(c1)CC(=O)N([C@@H](C)CO)C[C@H](C)[C@H](CN(C)Cc1ccc(C(=O)Nc3ccccc3N)cc1)O2,i
COc1ccc(NC(=O)N(C)C[C@H]2Oc3c(NS(=O)(=O)c4cn(C)cn4)cccc3C(=O)N([C@@H](C)CO)C[C@H]2C)cc1,i
CCCNC(=O)N1C[C@@H]2[C@H](c3ccccc31)[C@@H](CO)N2C(=O)Nc1ccc(F)cc1,i
CN1CCN(C(=O)C[C@H]2C[C@@H]3c4cc(NC(=O)NC5CCCC5)ccc4O[C@@H]3[C@@H](CO)O2)CC1,i
C/C=C/c1ccc2c(c1)O[C@H](CN(C)C(=O)c1cccnc1)[C@H](C)CN([C@@H](C)CO)S2(=O)=O,i
Cc1ccccc1-c1ccc2c(c1)O[C@@H](CN(C)Cc1ccc(C(=O)O)cc1)[C@@H](C)CN([C@@H](C)CO)S2(=O)=O,i
COc1ccc(NC(=O)Nc2ccc3c(c2)C(=O)N([C@H](C)CO)C[C@H](C)[C@H](CN(C)Cc2ccc(Cl)c(Cl)c2)OCCCC[C@H](C)O3)cc1,i
CCC(=O)N1C[C@@H](O)COC[C@H]2O[C@H](CC(=O)NCc3ccc(Oc4ccccc4)cc3)CC[C@@H]21,i
CNC[C@@H]1OCCCC[C@H](C)Oc2ccc(NC(=O)CCC(F)(F)F)cc2C(=O)N([C@@H](C)CO)C[C@@H]1C,i
O=C(C[C@@H]1CC[C@@H](NC(=O)Nc2ccccc2F)[C@H](CO)O1)NCc1ccccc1,i
CC(C)CC#Cc1ccc([C@H]2[C@@H](CO)N3CCCCN(C(=O)c4ccc5c(c4)OCO5)C[C@@H]23)cc1,i
CNC[C@H]1Oc2c(NC(=O)Nc3ccc(C(F)(F)F)cc3)cccc2C(=O)N([C@@H](C)CO)C[C@@H]1C,i
Cc1noc(C)c1S(=O)(=O)N(C)C[C@@H]1Oc2ccc(NC(=O)Nc3ccc4c(c3)OCO4)cc2C(=O)N([C@@H](C)CO)C[C@@H]1C,i
COCC(=O)N1CC[C@H]2[C@@H]1c1cc(-c3ccc(OC)cc3)ccc1N(C)[C@H]2CO,i
C[C@@H]1CN([C@@H](C)CO)C(=O)c2cc(C#CC3CC3)cnc2O[C@@H]1CN(C)C,i
C[C@@H]1CN([C@H](C)CO)S(=O)(=O)c2ccc(C#C[C@@H](C)O)cc2O[C@H]1CN(C)C(=O)C1CCC1,i
C[C@H]1CN([C@@H](C)CO)C(=O)c2cc(NC(=O)C3CC3)ccc2O[C@H]1CN(C)C(=O)NC1CCCCC1,i
CCCNC(=O)Nc1ccc2c(c1)OC[C@H](C)N(Cc1ccccn1)C[C@H](C)[C@@H](OC)CN(C)C2=O,i
O=C(N[C@@H]1CC[C@@H](CCNS(=O)(=O)c2ccccc2)O[C@H]1CO)c1cnccn1,i
COCC#Cc1cnc2c(c1)C(=O)N([C@H](C)CO)C[C@@H](C)[C@@H](CN(C)C(=O)Nc1c(C)noc1C)O2,i
C[C@@H]1CN([C@@H](C)CO)S(=O)(=O)c2ccc(-c3ccncc3)cc2O[C@H]1CN(C)C,i
C[C@@H]1CN([C@@H](C)CO)C(=O)c2cc(Br)cnc2O[C@@H]1CN(C)C(=O)c1ccccn1,i
C[C@@H]1CN([C@@H](C)CO)C(=O)c2cccc(NC(=O)C3CC3)c2O[C@H]1CN(C)Cc1ccc(Oc2ccccc2)cc1,i
Cc1noc(C)c1S(=O)(=O)Nc1ccc2c(c1)C(=O)N([C@@H](C)CO)C[C@H](C)[C@H](CN(C)S(=O)(=O)c1cccs1)O2,i
C[C@@H]1CN([C@@H](C)CO)C(=O)c2cccc(NS(=O)(=O)c3cn(C)cn3)c2O[C@@H]1CN(C)Cc1ccc2c(c1)OCO2,i
C[C@H](CO)N1C[C@H](C)[C@H](CN(C)C(=O)Nc2ccc(F)cc2)Oc2ncccc2C1=O,i
O=C(O)C[C@@H]1C[C@H]2c3cc(NC(=O)Nc4ccc(F)cc4)ccc3O[C@H]2[C@H](CO)O1,i
C[C@H](CO)N1C[C@H](C)[C@H](CN(C)Cc2ccc(Cl)c(Cl)c2)Oc2c(NC(=O)c3ccc(-c4nccs4)cc3)cccc2C1=O,i
C[C@@H]1CN([C@@H](C)CO)C(=O)c2cccc(NS(C)(=O)=O)c2O[C@H]1CN(C)S(=O)(=O)c1cn(C)cn1,i
CC(C)(C)S(=O)N1Cc2cc(C(=O)NCCCN3CCOCC3)nc(-c3cccc(C#CCC4CCCC4)c3)c2[C@@H]1CCO (stereo partly drawn),i
Cc1noc(C)c1NC(=O)Nc1cccc2c1O[C@H](CN(C)S(=O)(=O)c1ccc(F)cc1)[C@H](C)CN([C@@H](C)CO)C2=O,i

# Screening results: PubChem BioAssay, Broad Institute
